LASV entry inh: blocks Lassa virus binding to or entry into cells | Lassa virus pseudotype entry inhibition, cell reporter; control for the full effect not named in the record | Potency, µM (doses to about 37.9 µM), for the others: at the top dose activity change, negative = inhibition, hits mostly inhibitors | 300,000 tested, 1.2% active | AID 540256; active means well fitted inhibition curve with a large enough effect; inconclusive means small, poorly fitted or top-dose-only effect, or effect the other way; inactive means flat fitted curve, though single readings scatter; tested in HEK293 cells; also: % is scaled to controls: 0 for no effect and ±100 for the full control effect; nearly all actives have a fitted effect of over 50% in size; luciferase read-out
SARS PLpro yeast: blocks SARS-CoV papain-like protease in a yeast assay. S. cerevisiae expressing SARS-CoV PLpro, growth rescue; control for the full effect not named in the record. AID 485353. 330,000 tested, 0.19% active. Potency, µM (doses to about 32.9 µM), without a hit: at the top dose activity, positive = growth rescue; active means well fitted rising curve with a large enough effect; inconclusive means small, poorly fitted or top-dose-only effect; inactive means no such curve, though single readings can be large or run the other way; also: 0% is about no effect; nearly all actives have a fitted effect of over 55% in size; growth read by luminescence after 48 h
NS1 function inh: inhibitors of influenza NS1 protein function; S. cerevisiae slowed by influenza A NS1, growth recovery by OD600; Potency, µM (series often up to 46.1 µM), for the others: at the top dose activity, positive = more growth; 270,000 tested, 0.4% active; AID 2326; active means well fitted rising curve with a large enough effect; inconclusive means small, poorly fitted or top-dose-only effect; inactive means no such curve, though single readings can be large or run the other way; also: nearly all actives have a fitted effect of over 50% in size
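A cell-based growth assay was used: compounds that relieve NS1-induced slow growth of budding yeast raise OD600. Assay medium was yeast nitrogen base with ammonium sulphate and -URA supplement, pH 6.0, with 2% galactose.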
2A StopGo: lowers the luciferase signal of an FMDV 2A StopGo reporter; human cells with a luciferase reporter of 2A StopGo recoding; control for the full effect not named in the record; Potency, µM (titrated, usually from 57.9 µM), for the others: at the highest dose signal change, negative = less light; 410,000 tested, 1.2% active; active = well fitted falling curve with a large enough effect; inconclusive = small, poorly fitted or top-dose-only effect; inactive = no such curve, though single readings can be large or run the other way; tested in HEK293T cells; also: % is scaled to controls: 0 for no effect and ±100 for the full control effect; nearly all actives have a fitted effect of over 45% in size; luciferase light after 4 h
RE007 growth inh: less growth of the S. pombe RE007 Vpr strain; S. pombe RE007 Vpr strain, BacTiter-Glo ATP luminescence, 24 h; control for the full effect not named in the record; Potency, µM (titrated, usually from 92.2 µM), for the others: at the top dose activity change, negative = less growth; 360,000 tested, 0.21% active; AID 651644; active = well fitted falling curve with a large enough effect; inconclusive = small, poorly fitted or top-dose-only effect; inactive = no such curve, though single readings can be large or run the other way;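 also: % is scaled to controls: 0 for no effect and ±100 for the full control effect; nearly all actives have a fitted effect of over 50% in size; the assay follows cell death caused by Vpr and the record does not say whether a fall means rescue or toxicity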
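Fission yeast strain RE007, carrying one chromosomally integrated HIV-1 vpr copy, was seeded at OD 0.01 in PMG+AL medium with 23 nL pinned compound. After 24 h at 30 °C and 99% humidity, viability was read by BacTiter-Glo luminescence.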
Cruzain inh Det: blocks cruzain activity in presence of Triton detergent. purified cruzain, Z-FR-AMC fluorescence, 0.01% Triton. Potency, µM, for inactives: max response, negative = inhibition, usual class: inhibitors. 200,000 tested, 0.43% active. AID 1478;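 also: plate controls were neutral wells for no effect and buffer without enzyme for full effect; nearly all actives have a fitted effect of over 40% in size; top concentration of the series not given in the record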
Target sequence (P25779 123-467 limits assumed): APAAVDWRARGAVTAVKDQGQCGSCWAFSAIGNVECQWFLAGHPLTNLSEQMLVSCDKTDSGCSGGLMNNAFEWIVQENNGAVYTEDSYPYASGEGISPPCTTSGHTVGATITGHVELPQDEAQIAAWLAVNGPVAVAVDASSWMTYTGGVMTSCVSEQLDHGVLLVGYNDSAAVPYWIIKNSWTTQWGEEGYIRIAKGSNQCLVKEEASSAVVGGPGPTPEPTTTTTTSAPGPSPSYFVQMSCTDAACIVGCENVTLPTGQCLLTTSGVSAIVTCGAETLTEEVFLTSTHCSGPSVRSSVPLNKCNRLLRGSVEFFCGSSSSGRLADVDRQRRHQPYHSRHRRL
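Sodium acetate buffer (100 mM, pH 5.5) containing 5 mM DTT and 0.01% Triton X-100 hosted 1.5 nM cruzain and test compound for 15 min at room temperature. Cleavage of 2 uM Z-FR-AMC was then tracked by fluorescence.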
Marburg entry inh: Marburg virus entry inhibition; Marburg virus pseudotyped entry inhibition, cell reporter; control for the full effect not named in the record; about a third of the inactives were read at about 46 µM; Potency, µM (top dose mostly 37.8 µM), for inactives: at the highest dose activity change, negative = inhibition, usual class: inhibitors; 300,000 tested, 1.8% active; AID 540276; active = well fitted inhibition curve with a large enough effect; inconclusive = small, poorly fitted or top-dose-only effect, or effect the other way; inactive = flat fitted curve, though single readings scatter; tested in HEK293 cells; about a fifth of its hits are not listed in these tables; also: % is scaled to controls: 0 for no effect and ±100 for the full control effect; luciferase read-out
Cruzain noTriton: blocks cruzain activity in detergent-free assay | P25779 | purified cruzain, Z-FR-AMC fluorescence, no detergent | Potency, µM, without a hit: max response, negative = inhibition, most hits filed as inhibitors | 200,000 tested, 2.3% active | AID 1476;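 also: plate controls were enzyme without inhibitor for no effect and buffer without enzyme for full effect; nearly all actives have a fitted effect of over 40% in size; top concentration of the series not given in the record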
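Purified cruzain at 1.5 nM, pre-incubated 15 min with compound at room temperature in 100 mM sodium acetate pH 5.5, 5 mM DTT, 0.00005% Triton X-100. Reaction started with 2 uM Z-FR-AMC; AMC fluorescence increase over 60 s gives rate.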
An asterisk follows results filed as active; ? = inconclusive; . = no result given; & = joins results of further samples; [ ] = dose if it differs, or a comment. Unless noted, calls follow the shape of the dose curve; as a rule, active = well fitted curve in the direction sought with a large enough effect; inconclusive = small, poorly fitted or top-dose-only effect, or another doubt; inactive = no such curve, though single readings can be large; an effect the other way counts as inactive or inconclusive. Potency is read from the fitted curve at half-maximal effect.

SMILES	LASV entry inh	SARS PLpro yeast	NS1 function inh	2A StopGo	RE007 growth inh	Cruzain inh Det	Marburg entry inh	Cruzain noTriton
Cc1cccc(C(=O)NNC(=O)c2ccc(Cl)cc2)c1O	2%	-6%	-20%	7%	-6%	-1.4%	?	?
COc1cc2nc(=S)n3[nH]c(COc4ccccc4C)nc3c2cc1OC	15%	3%	13%	-28%	-19%	-13%	0%	?
CCOc1ccc(Cn2nnc(C(=O)Nc3cc(C)cc(C)c3)c2N)cc1	.	0%	6%	-8%	-3%	-3.3%	.	-17%
CN(Cc1ccccc1)C(C(=O)NC1CCCCC1)c1ccc(Cl)cc1 (stereo not given)	-11%[46.1 µM]	.	.	11%	.	1.0%	-1%[46.1 µM]	0%
O=[N+]([O-])c1ccc(N2CCC(=NOCc3ccc(Cl)cc3)CC2)cc1	?	-3%	-1%	-15%	-27%	2.5%	17%	10%
O=C1Nc2ccccc2/C1=C/c1ccnc2ccccc12	.	0%	2%	-21%	3%	.	.	.
CCOC(=O)CCc1c(C)nc2cc(-c3ccccc3OC)[nH]n2c1=O	.	-1%	-1%	3%	10%	-1.7%	.	3%
Cc1ccc(NC(=O)CCc2nc(-c3ccccc3F)no2)c(C)c1	?	.	.	0%	.	-0.2%	18%[46.1 µM]	-14%
CC(C)(C)c1nnc(NC(=O)C2CCN(C(=O)c3ccco3)CC2)s1	-22%	-3%	13%	-19%	-1%	.	12%&12%[46.1 µM]	.
O=C(NCCCN1CCCC1=O)c1ccccc1OCc1ccc(Cl)cc1Cl	-26%	1%	.	-23%	27%	.	?	.
OCCCc1nc2ccccc2n1CCOc1ccccc1	23%	1%	2%	0%	-10%	2.0%	-6%	-10%
CCCOc1ccc(Cc2c(O)nc(N)[nH]c2=O)cc1C	.	-1%	2%	33%[activator]	14%	.	.	.
Cc1cccc(N2C(=O)C3C4C=CC(C5CC45)C3C2=O)n1 (stereo not given)	0%	0%	1%	-11%	-9%	.	?	.
O=C(CC1S/C(=N\S(=O)(=O)c2ccccc2)N(c2ccccc2)C1=O)Nc1ccc(F)cc1 (stereo not given)	2%	0%	9%	-19%	7%	-5.9%	2%	-7%
O=C(CCl)N=c1sccn1Cc1ccccc1Cl	?	-2%	-6%	?	23%	.	?	.
Cc1ccc(NC(=O)c2ccccc2Br)cc1S(=O)(=O)N(C)C	10%	0%	.	27%	-13%	.	?	.
CCc1cccc(C)c1NC(=O)c1cc(S(=O)(=O)N2CCN(c3ccccc3)CC2)ccc1F	-11%[46.1 µM]	.	.	?	.	0.5%	.	10%
CC(NC(=O)c1ccc2c(c1)CCN2S(=O)(=O)c1ccc(Cl)cc1)c1ccccc1 (stereo not given)	?	.	.	-22%	.	0.2%	?	2%
CCOc1cc(NC(=S)Nc2cccc(C)c2)c(OCC)cc1NC(=O)CC(C)C	2%	-17%	22%	34%[activator]	-6%	-4.5%	-24%&-24%	-6%
CC(C)(C)[C@H]1C=C(C(=O)N2CCN(Cc3ccccc3)CC2)O[C@@H](OCc2ccc(CO)cc2)C1	.	0%	-10%	-9%	-8%	.	.	.
O=C(CCNS(=O)(=O)c1cccc(Cl)c1)OCC(=O)N1CCN(C(=O)c2ccco2)CC1	18%	1%	.	-16%	3%	.	6%	.
O=C(Nc1ccc2nsnc2c1)N1CCCCC1	13%	-11%	-6%	49%[activator]	6%	1.2%	20%	-5%
Cc1cc(NC(=O)c2cccc3c2C(=O)N(C2CCCCC2)C3)ccc1Br	27%[46.1 µM]	13%	-2%	-8%	3%	.	-15%[46.1 µM]	.
O=C1C2CCCN2C(c2ccc(F)cc2)N1c1ccc(Cl)cc1 (stereo not given)	.	-7%	4µM*	1%	-7%	3.1%	.	2%
CC(C)C(NC(=O)C1CCC(C(C)(C)C)CC1)C(=O)NCc1cccnc1 (stereo not given)	-21%	-7%	1%	-9%	-12%	1.2%	-17%[46.1 µM]	24%
Carrying on:
SMILES	LASV entry inh	SARS PLpro yeast	NS1 function inh	2A StopGo	RE007 growth inh	Cruzain inh Det	Marburg entry inh	Cruzain noTriton
CC[C@@H](C)[C@H](CN[C@H](CNC)C(C)C)NC[C@@H](C)c1ccc(CC(C)C)cc1	.	0%	-9%	?	-3%	.	.	.
COCCN=c1scc(-c2ccccc2)n1/N=C/c1c[nH]c2ccccc12	.	-88%	19%	0%	-15%	-8.2%	.	9%
CC1CN(C(=O)Cn2cc(S(=O)(=O)CC(=O)N(C)c3ccccc3)c3ccccc32)CC(C)O1 (stereo not given)	.	-2%	3%	2%	-13%	.	.	.
Cc1ccccc1SCC(=O)N/N=C/c1ccc(F)cc1	?	-2%	-10%	0%	9%	.	12%[46.1 µM]	.
Cc1cccc(NC(=O)c2ccc(F)c(S(=O)(=O)N3CCC4(CC3)OCCO4)c2)c1	7%[46.1 µM]	0%	-30%	9%&11%	3%	-0.5%	.	15%
Cc1cc(C)cc(NC(=O)CSc2nc3nccnc3c(=O)n2CCc2c[nH]c3ccccc23)c1	-3%[46.1 µM]	.	.	-18%	.	0.2%	.	-2%
Cc1[nH]n(-c2ccccc2)c(=O)c1CCOC(=O)c1cccc(C(F)(F)F)c1	-11%	-7%	-3%	-24%	13%	-3.2%	?	9%
Cc1ccc2nc(NC(=O)C3=NN(c4ccccc4)C(=O)CC3)sc2c1	.	-7%	25%	14%	-3%	-9.1%	3%	-26%
Cc1ccc(NC(=O)Cn2cc(S(=O)(=O)c3ccccc3)c(=O)c3cc(F)ccc32)cc1	4%	-5%	?	-10%	-4%	-0.7%	22%	-16%
Cn1c(=O)n(Cc2ccc(F)cc2)c(=O)c2c1nc1n2CCCN1C1CCCCC1	-26%	-1%	-36%	?	7%	-9.3%	-2%	13%
CCOC(=O)C(NC(C)=O)C(=O)O (stereo not given)	17%	-2%	13%	-18%	5%	-0.9%	?	4%
Cc1nc2cc(C)c(C)cc2o1	-3%[46.1 µM]	.	.	-9%	1%	.	3%[46.1 µM]	.
O=C(Nc1ccc2nc(SCC(=O)N3CCOCC3)sc2c1)c1cccc(Br)c1	-18%[46.1 µM]	.	.	25µM*	.	-9.2%	?	?
O=C(Nc1ccc2nc(-c3ccccc3)[nH]c2c1)c1cccs1	-16%	-5%	-1%	.	3%	-9.5%	-4%	-9%
COc1cccc(NC(=O)CN(C)C(=O)c2cc(-c3ccc(F)cc3)nc3ccccc23)c1	-10%	-5%	.	?	2%	.	?	.
COc1ccccc1OCC(=O)Nc1nc(-c2ccc(Br)cc2)ns1	11%[46.1 µM]	.	.	-3%	.	-1.7%	-5%[46.1 µM]	-4%
COc1ccccc1N=Nc1c(C)[nH][nH]c1=O	-11%	-2%	-6%	14%	-8%	.	8%	.
O=C(Cc1ccc([N+](=O)[O-])cc1)Nc1cccnc1	.	0%	3%	-6%	-13%	.	.	.
O=C1CSc2ccc(S(=O)(=O)N3CCN(c4ccccc4)CC3)cc2N1	.	1%	8%	-23%	2%	.	.	.
CSc1ccccc1NC(=O)CN(c1cc(C)cc(C)c1)S(C)(=O)=O	7%	6%	-45%	-9%	4%	-5.5%	7%	14%
CCOC(=O)N1CCN(C(=O)C(NC(=O)C2CCC(C)CC2)C(C)C)CC1 (stereo not given)	22%	-2%	0%	22%	24%	1.4%	-20%	-8%
CCOc1ccccc1Nc1nc2ccc(C)cc2n2cnnc12	.	4%	2%	-13%	-6%	.	.	.
O=C(NCc1n[nH]c(=S)n1-c1cccc(C(F)(F)F)c1)c1ccc(S(=O)(=O)N2CCCCC2)cc1	.	2%	?	4%	-10%	.	-11%[46.1 µM]	.
CN(C(=O)c1nn(C)c2c1CS(=O)(=O)c1ccccc1-2)c1cccc(Cl)c1	-9%[46.1 µM]	0%	0%	-2%&5%	-8%	-1.6%	.	-9%
O=C(OCc1c(F)cccc1Cl)c1cc([N+](=O)[O-])ccc1N1CCOCC1	-27%	4%	.	-29%	-18%	.	-14%[46.1 µM]	.
Following part:
SMILES	LASV entry inh	SARS PLpro yeast	NS1 function inh	2A StopGo	RE007 growth inh	Cruzain inh Det	Marburg entry inh	Cruzain noTriton
O=C(CN1C(=O)NC2(CCCCCC2)C1=O)c1ccc(Cl)s1	10%	0%	.	15%	8%	.	?	.
Cc1ccc(C=NNc2ccc([N+](=O)[O-])cn2)cc1	?	.	.	13%	4%	.	?	.
CN(C)c1ccc(C=NNC(=S)Nc2ccc(F)cc2)cc1	?	.	.	-14%	6%	.	?	.
O=C(OCC(=O)N1CCc2ccccc21)c1ccccc1	?	0%	-14%	43%[activator]	5%	-3.3%	11%	6%
COc1cc(-c2cc(C(=O)Nc3cc(S(=O)(=O)N4CCOCC4)ccc3O)c3ccccc3n2)cc(OC)c1OC	-17%	1%	.	0%	-14%	.	?	.
C=CCOc1ccc(C2/C(=C(\O)c3ccc4c(c3)CC(C)O4)C(=O)C(=O)N2CCN2CCOCC2)cc1OCC (stereo not given)	.	-2%	11%	-13%	-6%	.	.	.
CCOC(=O)c1sc(C)c2c(=O)n(CCc3ccccc3)nnc12	-1%	3%	6%	-19%	-3%	0.8%	19%	-8%
Cc1ccc(-n2nc3c(c2NC(=O)c2ccco2)CS(=O)(=O)C3)cc1	.	2%	-5%	-5%	5%	.	.	.
CN(C)c1cccc(C(=O)n2cc(C(=O)c3cc(F)ccc3O)cn2)c1	-7%	-3%	-38%	17%	-1%	0.7%	-1%	-8%
O=S(=O)(c1ccc(Cl)cc1)N1CCN(Cc2c[nH]c3ccccc23)CC1	3%	13%	2%	-20%	0%[3.69 µM]	-0.6%	?	11%

Single entries from the entries so far.
O=C(OCC(=O)N1CCc2ccccc21)c1ccccc1 in SARS PLpro yeast = 0%
O=S(=O)(c1ccc(Cl)cc1)N1CCN(Cc2c[nH]c3ccccc23)CC1 in Cruzain inh Det = -0.6%

High-throughput results: PubChem BioAssay, National Center for Advancing Translational Sciences (NCATS)
